Assay outcomes: PubChem BioAssay, several laboratories
FGF22 binding: shifts melting point of recombinant human FGF22; Q9HCT0; recombinant FGF22 thermal shift, SYPRO orange fluorescence; percent of sucrose octasulfate shift, DMSO zero; calls only at 9.99 µM; 340,000 tested, 1.5% active; AID 651658;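 active = melting point raised past a set limit in the mean and every replicate; three in four hits are not shown here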
Target sequence (Q9HCT0 whole entry, looked up): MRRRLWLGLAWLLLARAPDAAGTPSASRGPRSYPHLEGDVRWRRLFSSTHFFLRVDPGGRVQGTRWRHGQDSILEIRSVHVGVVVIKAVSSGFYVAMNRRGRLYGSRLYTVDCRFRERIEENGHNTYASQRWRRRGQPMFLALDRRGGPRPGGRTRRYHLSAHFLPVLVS
Beta cell apopt: blocks beta cell apoptosis; protection from apoptosis, % (no concentration beside the values); INS-1E cytokine-induced death, ATP luminescence, 48 h; percent of positive-control rescue, neutral wells zero; AID 435005; 300,000 tested, 0.8% active;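 active = all replicates at 75% or more, or half of them and the mean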;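 also: 0% = cytokine-treated negative control wells and 100% = positive control rescue; higher means more ATP so stronger rescue from cytokine killing; wells of about 40 µL received 100 nL stock; the first replicate is given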
MLL AF4-AF9 inh: inhibitors of human MLL-AF4/AF9 interaction; P42568; AlphaScreen, biotin-AF4 peptide binding to FLAG-AF9; inhibition, % at 10 µM; 350,000 tested, 0.47% active; AID 651704;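 active = every replicate reaching a set inhibition limit, whatever the replicate mean, cut at about 25% in these data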;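 also: 0% = plate neutral control median and 100% = total signal loss; the record names both 10 and 1 µM as test concentration; the first replicate is given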
Target sequence (P42568 whole entry, looked up): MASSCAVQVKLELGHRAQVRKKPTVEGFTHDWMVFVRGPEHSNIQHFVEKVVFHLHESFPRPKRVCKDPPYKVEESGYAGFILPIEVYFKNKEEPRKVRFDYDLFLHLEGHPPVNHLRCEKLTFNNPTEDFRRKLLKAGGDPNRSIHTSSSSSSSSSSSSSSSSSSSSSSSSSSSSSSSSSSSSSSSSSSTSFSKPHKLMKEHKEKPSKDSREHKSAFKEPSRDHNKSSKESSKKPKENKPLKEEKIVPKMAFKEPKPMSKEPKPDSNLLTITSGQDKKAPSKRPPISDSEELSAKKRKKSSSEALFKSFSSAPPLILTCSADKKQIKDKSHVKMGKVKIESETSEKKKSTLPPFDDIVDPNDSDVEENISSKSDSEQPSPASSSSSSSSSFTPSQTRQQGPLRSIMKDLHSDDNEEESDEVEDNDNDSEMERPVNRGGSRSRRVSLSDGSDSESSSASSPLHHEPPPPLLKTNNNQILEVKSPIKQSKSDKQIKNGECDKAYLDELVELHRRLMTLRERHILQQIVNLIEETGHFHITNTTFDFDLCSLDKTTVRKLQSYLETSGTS
E coli growth: E. coli growth inhibition; 330,000 tested, 0.21% active; OD600 absorbance (test concentration not listed); Escherichia coli growth, OD600, 23 h; hits give low values;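 active = OD600 absorbance below the run mean of sample wells minus 3.6 SD, in any replicate, cut at about 0.56 in these data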;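 also: stock transfer was 300 nL into about 60 µL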
T cruzi repl: blocks replication of Trypanosoma cruzi; T. cruzi beta-gal in NIH3T3, luminescence, 90 h; 300,000 tested, 1.4% active; AID 1885; inhibition, % (test concentration not listed);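 active = mean inhibition across valid replicates above about 55%, limit read from the data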;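 also: signal also drops with host cell toxicity which is not excluded here; 0% = plate median of DMSO wells and 100% = zero luminescence signal; higher percent means less beta-gal luminescence so fewer parasites; stock transfer was 50 nL into about 50 µL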
A1 inh: inhibitors of the anti-apoptotic protein A1, read as caspase activation | caspase activation, % (test concentration not listed) | MEF A1-2A-BIM cells, Caspase-Glo 3/7 luminescence, 3 h; percent of clofoctol response, vehicle zero | 330,000 tested, 0.066% active;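 active = over half of replicate activation scores above 10%, or exactly half above 10 with the replicate mean above 10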;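 also: wells of about 30 µL received 50 nL stock; many hits fall short of the cut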
Ecoli rRNA inh: inhibits bacterial ribosomal RNA function over humanized ribosomes. E. coli WT GFP vs humanized-ribosome RFP mutants, fluorescence, 24 h; hits give low values; DMSO median 0, no signal -100. GFP signal change (wild-type ribosome), % (no concentration beside the values). 350,000 tested, 1.6% active;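 active = significant combined selectivity score with lowered wild-type GFP, culture density cut under 30%, mutant RFP and density less affected; inactive = any of these conditions unmet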; also: one replicate is shown; some compounds called inactive have numbers as strong as hits
UCH37 DUB inh: inhibitors of human deubiquitinating enzyme UCH37. Q9Y5K5. purified proteasome/UCH37, Ub-AMC cleavage fluorescence. inhibition, % (test concentration not listed). 330,000 tested, 0.33% active. AID 588478;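 active = mean of two replicates above 20%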;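 also: 0% = compound-free wells with enzyme and 100% = wells lacking proteasome; stock transfer was 100 nL into about 20 µL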
Target sequence (Q9Y5K5 whole entry, looked up): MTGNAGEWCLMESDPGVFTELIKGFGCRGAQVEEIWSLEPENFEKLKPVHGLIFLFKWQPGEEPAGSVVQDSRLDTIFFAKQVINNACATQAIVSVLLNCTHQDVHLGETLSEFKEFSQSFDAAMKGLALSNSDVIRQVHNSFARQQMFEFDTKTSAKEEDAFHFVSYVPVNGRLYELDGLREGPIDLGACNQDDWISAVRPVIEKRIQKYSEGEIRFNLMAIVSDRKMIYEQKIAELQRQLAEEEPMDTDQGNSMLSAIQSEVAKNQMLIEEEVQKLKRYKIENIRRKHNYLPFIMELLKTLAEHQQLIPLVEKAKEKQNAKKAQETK
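Test system – human UCH37 enzyme supplied as purified proteasome complex · Incubation – 30 min preincubation with enzyme, 25 min cleavage at room temperature · Detection – AMC fluorescence from Ub-AMC cleavage, excitation 355 nm, emission 460 nm · Benchmarks – no-proteasome wells (full inhibition) and compound-free wells (no inhibition)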
Ecoli rRNA inh OD600: second read-out of Ecoli rRNA inh, no call of its own (marks repeat the call); OD600 change, %; measured here: OD600 growth;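 optical density of the mix in the first replicate; 0 = DMSO median and -100 = no signal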
Ecoli rRNA inh RFP: also measured in Ecoli rRNA inh; calls as there; RFP signal change, %; measured here: RFP humanized mutant strains;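 first replicate; 0 = DMSO median and -100 = no signal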
* hit, by the source's call; i = inactive; / = no result given. These rows are one share of the data; count on the stated rates, not on these rows.

Start of the data: the first three entries, to show the layout:
SMILES	FGF22 binding	Beta cell apopt	MLL AF4-AF9 inh	E coli growth	T cruzi repl	A1 inh	Ecoli rRNA inh	Ecoli rRNA inh OD600	Ecoli rRNA inh RFP	UCH37 DUB inh
Cc1ccc(CNC(=O)CCS(=O)(=O)c2cc3c(cc2Cl)NC(=O)CO3)o1	/	/	-7.8	0.73	-11	/	6	5	-0.8	3.3
CCCN(Cc1nnc(-c2ccccc2Cl)o1)C(=O)c1cc([N+](=O)[O-])cc([N+](=O)[O-])c1	i	3	5.7	0.7	68*	-0.1	6	-1	-2.8	0.7
C/C(=N\NC(=O)C1CC1)c1ccc(OC(F)F)cc1	i	3	-1.2	/	-6	-0.2	3	6	-1.3	/

All compounds of this part (from the top)
SMILES	FGF22 binding	Beta cell apopt	MLL AF4-AF9 inh	E coli growth	T cruzi repl	A1 inh	Ecoli rRNA inh	Ecoli rRNA inh OD600	Ecoli rRNA inh RFP	UCH37 DUB inh
Cc1ccc(CNC(=O)CCS(=O)(=O)c2cc3c(cc2Cl)NC(=O)CO3)o1	/	/	-7.8	0.73	-11	/	6	5	-0.8	3.3
CCCN(Cc1nnc(-c2ccccc2Cl)o1)C(=O)c1cc([N+](=O)[O-])cc([N+](=O)[O-])c1	i	3	5.7	0.7	68*	-0.1	6	-1	-2.8	0.7
C/C(=N\NC(=O)C1CC1)c1ccc(OC(F)F)cc1	i	3	-1.2	/	-6	-0.2	3	6	-1.3	/
Cc1ccc(CNC(=O)CS(=O)Cc2nc(-c3ccccc3C)oc2C)cc1 (centres undefined)	i	-5	2.7	0.72	4	0.4	5	-7	-2.3	4.6
COc1ccc(CCNC(=O)COc2ccc3c(c2)OCO3)cc1	i	3	-3.0	0.66	/	0.0	/	/	/	0.8
CC(=O)Nc1ccc(SCCN2CC[C@@H](C(C)(C)C)CCC2=O)cc1	i	3	-60	/	/	3.5	-16	-15	-4.5	3.2
Cc1ccsc1/C=N/Nc1nc2ccccc2s1	/	9	11	/	0	-0.3	-2	-17	-6.7	/
COc1ccccc1OCCNC(=O)c1ccc(NC(=O)CC2SC(N3CCCC3)=NC2=O)cc1 (centres undefined)	i	/	-7.5	0.71	/	/	-4	1	-4.7	-2.0
Cc1cccc(N2CCN(S(=O)(=O)c3cccs3)CC2)c1C	i	-8	0.7	0.71	13	0.0	0	-10	-1.4	-0.1
C=CCN=C1SCC(=O)N1S(=O)(=O)c1ccccc1	/	3	/	0.7	-8	-0.1	/	/	/	0.2
CC(C)(C)Nc1nc(Cl)nc(NCCN2CCOCC2)n1	i	-2	/	0.59	-35	-0.5	5	-1	0.6	1.2
C=CCNC(=S)N1CCOCC1	i	3	-2.1	0.7	3	0.6	9	4	-4.1	1.1
COC(=O)CC(NC(=O)c1ccco1)c1ccc(C(C)C)cc1 (centres undefined)	/	-2	/	0.7	-3	0.5	/	/	/	2.4
COCCNC(=O)c1cc(-c2ccccn2)nc2ccc(S(=O)(=O)N3CCC(C)CC3)cc12	i	-1	0.7	0.7	-7	-0.4	1	-3	-0.4	0.5
Cc1nnc(SCc2nc3sc4c(c3c(=O)[nH]2)CCCC4)n(N)c1=O	i	/	-1.0	0.7	-21	/	-2	8	1.9	0.1
COc1ccc(NC(=O)COC(=O)c2ccc(-n3cnnn3)cc2)cc1Cl	i	-2	0.0	0.62	-14	0.6	7	5	3.7	2.6
O=[N+]([O-])c1cc(S(=O)(=O)N2CCCC2)ccc1NN=C1CCCCC1	i	-8	-0.2	0.69	8	-1.0	-14	-11	-8.3	5.6
CCOc1ccccc1C(C(=O)NC1CCCCC1)N(C(=O)c1csnn1)C1CC1 (centres undefined)	i	-12	-1.4	0.67	7	-0.5	/	/	/	3.3
COc1cc(-c2cc(-c3ccccc3)nc(SCC(=O)Nc3nccs3)c2C#N)cc(OC)c1OC	/	13	/	0.68	55*	1.6	/	/	/	-9.3
COc1cccc(N2CCN(CC(=O)c3c(C)[nH]c4ccccc34)CC2)c1	i	3	13	0.6	17	-1.4	-10	-9	-3.2	2.5
COc1ccc(-c2cc(C(F)(F)F)nc(SCC(=O)NCc3cnn(C)c3C)n2)cc1OC	/	0	/	0.68	-18	0.3	/	/	/	-38
CCCCN(Cc1nc2ccccc2c(=O)[nH]1)C(=O)COc1ccc(F)cc1Cl	i	-7	-0.2	0.71	/	-0.8	/	/	/	0.7
O=C(NCC1CCCCC1)c1ccc(Br)o1	i	0	0.0	0.67	1	0.3	-4	-4	2.9	-1.0
O=S(=O)(NCCc1ccccc1)c1cccs1	i	-3	-0.8	0.7	-10	0.6	4	2	0.9	0.7

Entries of single compounds as entered above. Order of screens: FGF22 binding	Beta cell apopt	MLL AF4-AF9 inh	E coli growth	T cruzi repl	A1 inh	Ecoli rRNA inh	Ecoli rRNA inh OD600	Ecoli rRNA inh RFP	UCH37 DUB inh
COc1ccc(-c2cc(C(F)(F)F)nc(SCC(=O)NCc3cnn(C)c3C)n2)cc1OC is entered as /	0	/	0.68	-18	0.3	/	/	/	-38
COc1ccc(NC(=O)COC(=O)c2ccc(-n3cnnn3)cc2)cc1Cl is entered as i	-2	0.0	0.62	-14	0.6	7	5	3.7	2.6
O=S(=O)(NCCc1ccccc1)c1cccs1 is entered as i	-3	-0.8	0.7	-10	0.6	4	2	0.9	0.7
COc1cccc(N2CCN(CC(=O)c3c(C)[nH]c4ccccc34)CC2)c1 is entered as i	3	13	0.6	17	-1.4	-10	-9	-3.2	2.5

Other results:
SMILES	FGF22 binding	Beta cell apopt	MLL AF4-AF9 inh	E coli growth	T cruzi repl	A1 inh	Ecoli rRNA inh	Ecoli rRNA inh OD600	Ecoli rRNA inh RFP	UCH37 DUB inh
COc1cccc(Nc2nn3c(=O)c4ccccc4nc3s2)c1	/	4	/	0.7	/	-1.2	/	/	/	5.1
CCCCNC(=O)C(=O)c1ccccc1NC(C)=O	/	-3	/	0.69	-12	-0.1	/	/	/	-1.5
COc1cc(C2C(C(=O)c3ccc(C)o3)=C(O)C(=O)N2CCN2CCOCC2)ccc1OCCC(C)C (centres undefined)	i	/	1.2	0.73	-6	/	7	-1	0.9	11
COC(=O)c1c(NC(=O)C2C3CCC(C3)C2C(=O)O)sc2c1CCCCC2 (centres undefined)	i	0	-3.4	0.69	0	1.0	-24	-25	-5.0	0.2
CCCCCCCC1CC(CSC(=N)N)OC1=O (centres undefined)	/	-13	/	0.68	17	-0.3	/	/	/	2.6
CCCOP(=O)(OCCC)C1(Nc2ccc(C)cc2)CCCCC1	/	-2	/	0.73	32	0.2	/	/	/	2.0
Cc1ccc(CN2CCSc3ccc(C(=O)NC4CCN(Cc5ccccc5)CC4)cc32)cc1	i	20	14	0.68	57*	-0.5	4	9	-0.4	-34
COc1ccc(N2CC(C(=O)Nc3ccc4c(c3)OCO4)CC2=O)cc1 (centres undefined)	/	2	/	0.75	-1	0.1	/	/	/	-3.3
COc1cccc(C(=O)Nc2nc3ccccc3s2)c1	i	/	0.0	0.69	-1	-6.1	-30*	-23*	-6.0*	-0.2
OC(COc1ccccc1)CSc1ncn[nH]1 (centres undefined)	/	-1	/	0.69	-18	0.1	/	/	/	0.6
COC(=O)c1ccc(NC(=S)N2CCN(Cc3ccc(Cl)cc3)CC2)cc1	/	-1	/	0.65	4	-0.2	/	/	/	1.6
Cc1nc2ccccc2nc1OCC(=O)Nc1ccc2ccccc2c1	/	-7	/	0.72	17	-1.3	/	/	/	-1.7
Cc1cc(C)nc(Sc2c(F)c(F)c(C(F)(F)F)c(F)c2F)n1	/	3	/	0.76	-8	0.8	/	/	/	3.3
O=C(COC(=O)c1ccccc1NC(=O)c1ccco1)Nc1ccc2c(c1)OC(F)(F)O2	/	4	/	0.74	-3	0.4	/	/	/	-31
C=C(C)Cn1c(N2CCC(Cc3ccccc3)CC2)nc2c1c(=O)[nH]c(=O)n2C	/	0	/	0.66	38	1.0	/	/	/	2.4
CCOc1ccc(-n2c(-c3ccc(Cl)cc3)c[n+]3c2SCC3)cc1	i	73	1.8	0.68	62*	-0.5	-52	-78	-16	2.5
C/C(Cc1ccccc1)=N\NC(=O)CNC(=O)c1ccc(Br)cc1	i	-1	-0.5	/	-10	0.1	/	/	/	/
CC1CCN(S(=O)(=O)c2ccc(NC(=O)C3CC(=O)N(c4ccccc4)C3)cc2)CC1 (centres undefined)	i	4	-0.3	0.68	11	-0.1	-9	-2	3.1	1.3
COc1ccccc1CNC(=O)CC1C(=O)NCCN1C1Cc2ccccc2C1 (centres undefined)	i	-1	3.4	0.64	6	0.3	2	4	-2.8	-7.3
COCCn1nnnc1C(c1cccs1)N1CCN(c2cccc(C(F)(F)F)c2)CC1 (centres undefined)	/	6	/	0.74	5	-0.6	6	1	1.6	-1.7
NC(=S)n1[nH]c(-c2ccc([N+](=O)[O-])cc2)c(N=Nc2cccc([N+](=O)[O-])c2)c1=O	/	/	7.1	0.6	-23	/	1	12	-4.0	13
COC(=O)c1ccccc1OCCCCN1CC(C)OC(C)C1 (centres undefined)	/	/	/	0.67	1	0.0	/	/	/	4.6
COc1ccccc1NC(=O)Nc1ccc(NC(=O)c2ccccc2O)cc1	i	/	-0.2	0.6	-7	-4.3	-13	-15	4.8	1.5
CS(=O)(=O)N1CCN(C(=O)COc2ccccc2)CC1	i	-1	-0.5	0.75	-5	0.2	7	15	0.8	0.5
CCOC(=O)C(NC(=O)C1C(C)N1S(=O)(=O)c1ccc(C)cc1)C(=O)OCC (centres undefined)	i	-4	-0.6	0.72	-3	-1.7	5	10	0.6	0.9
C/C(=N\NC(=O)c1cc(Br)ccc1O)c1cccc(NC(=O)c2ccccc2F)c1	i	1	-0.1	/	-5	0.5	-39	-52	-13	/
O=C(CCCC(=O)OCC(Cl)=C(Cl)Cl)Nc1cccc(F)c1	/	-1	/	0.65	7	-0.6	/	/	/	4.5
COc1ccc(-n2nnnc2CNC(=O)C(=O)c2c[nH]c3ccccc23)cc1	i	/	0.2	0.6	0	-0.1	-9	-9	1.2	7.0
O=[N+]([O-])c1c(Nc2ccccn2)cc(Cl)c2nonc12	i	115*	-0.2	0.66	60*	-2.2	-13	-1	4.4	8.7
COc1cccc(CN2CC(C(=O)NC3CCC3)CCC2=O)c1 (centres undefined)	i	0	-1.2	/	-9	-0.1	25	9	1.9	/
Cc1c(NC(=O)c2ccc(S(=O)(=O)N3CCOCC3)cc2)c(=O)n(-c2ccccc2)n1C	i	-2	-1.2	0.69	-10	0.1	9	-1	-5.7	3.5
CC1CCCN(C/C=C/c2ccccc2[N+](=O)[O-])C1 (centres undefined)	/	-2	/	0.7	8	1.1	/	/	/	3.7
COC(=O)C(C)(C)ONC(=O)Nc1ccc(Br)cc1	i	-5	-3.4	0.7	-2	0.1	0	-5	-0.7	1.1
Cc1ccc(C(=O)NCC(=O)OCC(=O)/C=C2\N(C)c3ccccc3C2(C)C)cc1C	i	7	-2.2	0.68	13	-0.1	-12	-2	59	-9.5
CCCC1=NCCn2cccc21	/	-7	/	0.66	-12	0.6	/	/	/	0.3
Cc1ccc(NC(=O)c2ccccc2F)cc1S(=O)(=O)N1CCCCCC1	i	-1	-3.0	0.65	22	-0.3	-26	-29	-3.4	0.2
CCOC(=O)c1ccccc1N=N/C(C(C)=O)=C(/C)O	i	-3	-12	0.73	6	0.2	/	/	/	7.6
Cc1cccc(NC(=O)c2sc(Cl)nc2C)c1C	/	-7	/	0.63	-13	-0.1	/	/	/	2.6
